Bioassay records: PubChem BioAssay, Center for Chemical Genomics, University of Michigan
TAR Tat displ – HIV-1 TAR-Tat binding disruption; 100,000 compounds, 0.6% hits; AID 1259389; HIV-1 TAR RNA, Tat peptide displacement FRET; stronger effect = higher value; z-score (test concentration not listed);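 further: score is relative to mean and SD of negative controls; some compounds called inactive have numbers as strong as hits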
CDC25B CDK2 inh – human CDC25B-CDK2/CyclinA binding inhibition | P30305+P24941 | z-score (test concentration not listed) | AID 1259370 | HTRF CDC25B-CDK2/CyclinA binding, anti-His/anti-Flag; stronger effect = higher value | 94,000 compounds, 0.72% hits;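 further: score is relative to mean and SD of negative controls; strong numbers were not always called active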
The depositor's hits bear a star; · = not tested or not shown.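 How the source made its calls: active means z-score from 3 up in half or more of its runs; inactive means the rest.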

SMILES	TAR Tat displ	CDC25B CDK2 inh
Cc1cc(C)c2c(=O)n(C(=O)c3ccc(Cl)cc3)sc2n1	·	-1.29
O=C(C1CCN(c2nc(-c3ccc(Cl)cc3)no2)CC1)N1CCOCC1	1.93	·
Cn1c(=O)c(=O)n(C)c2cc(N3CCCC3)c(NS(=O)(=O)c3ccc(Cl)cc3)cc21	-0.78	·
O=C(Cn1c(=O)cc(O)c2ccccc21)N1CCN(c2ccccc2)CC1	-1.08	·
CCN(CC)C(=O)Cn1ncc2c(=O)oc3ccc(C)cc3c21	-0.02	0.49
Cc1cccc(OCc2nc(C#N)c(NC(C)c3ccccc3)o2)c1 (stereo not drawn)	-0.72	-1.59
Cc1cccc(Nc2cc(C)nc3nncn23)c1	-0.35	-1.06
Cc1[nH]c(=S)[nH]c(=O)c1Oc1ccc(=O)[nH]n1	·	-2.5
Cc1cc2nc(COC(=O)COc3ccc(Cl)cc3)cc(=O)n2o1	0.99	·
O=C(Nc1ccc(Cl)cc1)c1cnc2sc(N3CCOCC3)nn2c1=O	-0.03	·
Cc1ccc2nc(Nc3ccc4c(c3)OCCO4)c3nnnn3c2c1	-0.7	·
c1ccc(OCCn2c(C3CCCO3)nc3ccccc32)cc1 (stereo not drawn)	0.56	-1.84
CCN(CC)c1nn2c(=O)c(C(=O)NCc3ccc(C)o3)cnc2s1	1.18	·
CCCN(CCC)S(=O)(=O)c1ccc2c(c1)N(CC(=O)N1CC(C)CC(C)C1)C(=O)CS2 (stereo not drawn)	1.53	·
COc1ccc(Nc2cc(C)c3cc(N)ccc3n2)cc1	-0.16	1.97
COc1cccc(OC)c1/C=N/Nc1ccc([N+](=O)[O-])cn1	·	-2.42
O=c1c(SCc2ccccc2F)nccn1-c1cccc(F)c1	0.53	·
COc1cccc(C2CC(c3ccccc3)=NN2C(=O)CCCC(=O)O)c1OC (stereo not drawn)	1.52	-2.76
O=S(=O)(NCCn1c(-c2ccc(F)cc2)nc2ccccc21)c1cccc2nsnc12	1.35	·
COc1ccc(CSc2ncn[nH]2)cc1Br	·	-1.37
CC1(C(=O)NC2CCCCC2)Cn2c(ccc2-c2ccco2)C(=O)N1CCc1cccs1 (stereo not drawn)	1.38	·
Cc1cc(C)nc(SCC(=O)n2c(C)c(C)c3ccccc32)n1	0.91	-0.67
Cc1[nH]c(C)c(S(=O)(=O)N2CCN(C3CCCCC3)CC2)c1C(=O)N1CCCCC1	0.62	·
CCCC1CCc2c(sc(NC(=O)COc3ccc(Cl)cc3)c2C(N)=O)C1 (stereo not drawn)	1.3	-1.23
Cc1cccc(C(=O)Nc2nnc(SCc3cc(=O)n4nc(C)sc4n3)s2)c1	1.12	·
CCCCNC(=O)OCCSCCS(=O)(=O)c1ccc(Cl)cc1	·	-2.12
CCCN1C(=O)C2(/C(=C(/O)c3ccc(Cl)cc3)C(=O)C(=O)N2CCN(C)C)c2ccccc21 (stereo not drawn)	4.02	-2.33
Cc1nn(C)c(C)c1CNC(=O)c1[nH]nc2c1CCc1ccccc1-2	13.5	·
O=C(Nc1ccc2c(c1)OCCO2)c1cnc2sccn2c1=O	·	-1.95
COC(=O)c1cc(NC(=O)CCCC(=O)O)cc(C(=O)OC)c1	·	-3.05
CCOc1ccc(-n2c(C)nnc2SCc2nc(-c3ccccc3OCC)no2)cc1	0.74	-0.6
CC1(C)Cc2c(c(-c3ccccc3)nc3oc(C(=O)c4ccc(Br)cc4)c(N)c23)CO1	·	-1.59
CN(C)c1ccc(C2c3c([nH][nH]c3=O)CC(C)(O)C2C(=O)OCc2ccccc2)cc1 (stereo not drawn)	1.18	0.12
Cc1sc2c(c1C)c(=O)n(-c1ccc(F)cc1)c(=O)n2Cc1cc(=O)n2ccccc2n1	·	-0.33
Cn1c(-c2nnc(SCC(=O)NC3CCCCC3)o2)cc2ccccc21	0.94	-0.82
COC(=O)[C@H]1CC2CC1[C@H](OS(=O)(=O)c1ccc(C)cc1)C2 (stereo partly drawn)	·	-0.69
COC(=O)c1sc(N2C(=O)c3oc4ccc(F)cc4c(=O)c3C2c2ccc(C)cc2)nc1C (stereo not drawn)	-0.46	-2.1
Nc1cccc(Cl)c1Oc1ccc(S(=O)(=O)Nc2ccc(F)cc2)cc1	·	-1.75
COc1ccc(/C(O)=C2\C(=O)C(=O)N(CCN3CCOCC3)C2c2ccc(OC)c(OC)c2)cc1 (stereo not drawn)	1.54	-2.04
Cn1nnc2c(N3CCN(c4ccccc4)CC3)ncnc21	1.95	·
CCOc1ccc(CNc2nc3nc(C)cc(C)n3n2)cc1	0.58	0.13
O=C(Nc1c(C(c2ccccc2)N2CCOCC2)oc2ccccc12)c1ccco1 (stereo not drawn)	-0.57	-1.23
O=C1c2cccnc2C(Nc2ccc3c(c2)OCO3)N1Cc1ccco1 (stereo not drawn)	0.64	·
Cc1nc(CSc2nnc3scc(-c4ccc(Cl)cc4)n23)cs1	·	-1.07
O=C(CCc1nnc2ccc(NCc3ccc(Cl)cc3)nn12)NCc1ccc(Cl)cc1	1.85	1.06
CCn1c2c(c(=O)[nH]c1=O)C(c1ccccc1OC)C1=C(N2)c2ccccc2C1=O (stereo not drawn)	2.67	1.25
COC(=O)c1cc(-c2ccc(S(=O)(=O)N3CCN(C4CCCCC4)CC3)s2)on1	1.01	·
COc1cc(O)c2c(=O)c(O)c(-c3ccc(O)c(O)c3)oc2c1	6.35	·
COc1ccc(OC)c(Nc2nnc(-n3nc(C)cc3C)c3ccccc23)c1	1.86	·
Cc1ccc(Nc2nnc(-c3ccccc3N)o2)cc1C	·	-1.49
Cc1cc(=O)n2nc(N3CCCC(C(=O)Nc4ccc(Cl)cc4)C3)sc2n1 (stereo not drawn)	-0.02	-0.96
CCOC(=O)/C(C#N)=C/N1CCN(c2ccc([N+](=O)[O-])cn2)CC1	·	-1.76
COc1ccc(S(=O)(=O)n2nc(C)c(S(=O)(=O)N3CCOCC3)c2C)cc1	0.52	·
Cc1nc(C)c(-c2csc(Nc3ccc(O)cc3C)n2)s1	-1.6	-0.46
Cc1occc1-c1nnc(SCC(=O)Nc2ccc(F)cc2)o1	1.63	-1.01
Cc1ccc(C2C(=O)N(C3CCCC3)CC(=O)N2C2CCCCCCC2)cc1 (stereo not drawn)	·	-3.19
CC1Cc2nc(SCC(=O)Nc3ccc4c(c3)OCCO4)n(C)c(=O)c2S1 (stereo not drawn)	·	-0.7
Cc1cc(=O)[nH]c(Nc2ccc(Br)cc2)n1	1.51	-1.56
N#Cc1cc2c(nc1SCC(=O)N1CCCCC1)CCCC2	1.19	-0.13
CCCN(CCS(=O)(=O)N1CCNCC1)S(=O)(=O)c1ccc(C2CCCCC2)cc1	1.74	·

Compounds listed so far that contain an NH in an aromatic ring (7):
SMILES	TAR Tat displ	CDC25B CDK2 inh
Cc1[nH]c(=S)[nH]c(=O)c1Oc1ccc(=O)[nH]n1	·	-2.5
COc1ccc(CSc2ncn[nH]2)cc1Br	·	-1.37
Cc1[nH]c(C)c(S(=O)(=O)N2CCN(C3CCCCC3)CC2)c1C(=O)N1CCCCC1	0.62	·
Cc1nn(C)c(C)c1CNC(=O)c1[nH]nc2c1CCc1ccccc1-2	13.5	·
CN(C)c1ccc(C2c3c([nH][nH]c3=O)CC(C)(O)C2C(=O)OCc2ccccc2)cc1 (stereo not drawn)	1.18	0.12
CCn1c2c(c(=O)[nH]c1=O)C(c1ccccc1OC)C1=C(N2)c2ccccc2C1=O (stereo not drawn)	2.67	1.25
Cc1cc(=O)[nH]c(Nc2ccc(Br)cc2)n1	1.51	-1.56

New compounds follow.
SMILES	TAR Tat displ	CDC25B CDK2 inh
COc1c(C#N)cnc2ccc(Cl)cc12	0.42	-0.19
CCCCNc1ncccc1-c1nc(-c2cccc(C)c2)no1	1.2	-0.02
Cn1c(NCc2ccccn2)nc2c1c(=O)n(Cc1ccccc1F)c(=O)n2C	0.34	-0.19
CCn1cc(C(=O)NC2CCCCC2)c(=O)c2ccc(C)nc21	1.99	-0.79
O/C(=C\c1nc2ccccc2[nH]1)c1cc(Cl)c(O)cc1O	1.45	-0.89
N#Cc1c(C2CCCCC2)[nH]c(=S)[nH]c1=O	·	-1.19
Cc1ccccc1-c1nc(CSc2nc3ncccc3o2)c(C)o1	-0.82	·
COc1ccc(-c2cc(C)no2)cc1S(=O)(=O)Nc1ccc(C(C)C)cc1	-1.55	·
CCOc1ccc2nc(SCc3c(F)c(F)c(F)c(F)c3F)[nH]c2c1	·	-0.36
COc1cc(C2c3c(oc4ccccc4c3=O)C(=O)N2Cc2ccccc2)ccc1O (stereo not drawn)	-1.84	0.01
CCCCc1nc2sc3c(c2c(=O)[nH]1)CC(C)(C)OC3	1.55	-5.34
O=C1CCCc2cc(S(=O)(=O)NCC3CCC(C(=O)NCc4cccs4)CC3)ccc2N1 (stereo not drawn)	0.47	·
CC(=O)N1c2ccccc2CC1C(=O)NCCc1ccco1 (stereo not drawn)	1.25	·
Cc1cc(C)c(NC(=O)CSc2cn[nH]c(=O)n2)c(Cl)c1	1.97	-1.01
COC(=O)[C@H](CC(N)=O)NC(C)=O	·	-1.14
C[C@@]12CCc3occc3[C@H]1CC[C@]13CC(=O)C(CC[C@H]12)C3	-1.99	·
CCCCCCCCC(=O)Nc1nc2c(s1)CCc1cc(OC)ccc1-2	·	-1.43
COc1ccc(C2CC(=O)C3=C(C2)Nc2ccccc2NC3c2ccc(O)cc2)cc1 (stereo not drawn)	1.16	0.12
CC(=O)N1CCc2cc(Br)cc(S(=O)(=O)N3CCCC3c3ccc(F)cc3)c21 (stereo not drawn)	-1.39	-1.25
Cc1c(S(=O)(=O)c2ccccn2)c(N)n(Cc2ccccc2)c1C	·	0.67
CC(C(=O)Nc1ccc(Cl)cn1)N1Cc2ccccc2C1=O (stereo not drawn)	1.2	·
CC(=O)N1c2ccc(S(=O)(=O)NCC3CCC(C(=O)N4CCCCC4)CC3)cc2CC1C (stereo not drawn)	-0.79	·
O=C1c2cccnc2C(=O)N1Cc1ccc(S(=O)(=O)N2CCCN(Cc3ccc(F)cc3)C2)cc1	0.51	·
CCn1c2ccccc2c2nnc(N3CCN(C(=O)c4ccco4)CC3)nc21	1.07	-1.95
Cc1ccc(C(=O)CSC#N)cc1	·	-1.27
CC(C)NC(=O)Cn1cc(C(=O)C(C)(C)C)c2ccccc21	1.91	0.15
CCOC(=O)Nc1c(N)n(C)c(=O)n(C)c1=O	·	-1.52
O=C(c1ccccc1F)N1CCN(c2nc3cc(Br)ccc3n3cccc23)CC1	0.47	0.04
Cc1c(C(=O)Nc2ccc3c(c2)OCO3)sc2ncnc(N3CCCCC3C)c12 (stereo not drawn)	·	-0.23
O=C(O)c1cccc(C(=O)O)n1	·	-1.22
CC(C)c1ccc(C2N3CC4(C)CN2CC(C)(C3)C4=O)cc1 (stereo not drawn)	·	-1.85
CCOc1ccc(S(=O)(=O)NCc2ccc3c(c2)OCO3)c2ccccc12	0.69	-1.43
Cc1nn(CC(=O)NC2CCCC2)c(=O)c2cc3occc3n12	2.5	-0.32
CC(=O)Nc1nc(C)cs1	·	-0.44
CC1CCc2noc(NC(=O)COc3ccc(Br)cc3)c2C1 (stereo not drawn)	-0.12	-1.25
Cc1nn(-c2ccc(N3CCNCC3)nn2)c(=O)c2ccccc12	0.2	-1.26
CSc1ccc(C2c3c(oc4ccccc4c3=O)C(=O)N2CCCN2CCOCC2)cc1 (stereo not drawn)	0.5	-0.63
CCc1ccnc(NS(=O)(=O)c2ccc3c(c2)OCCO3)c1	·	-1.98
Cc1c(C(=O)NCCN2CCc3ccccc3C2)sc2nc3n(c(=O)c12)CCCCC3	0.23	·
COc1ccccc1N1COc2ccc(F)cc2C1	·	-0.39

Nothing new here: an excerpt of the list.
SMILES	TAR Tat displ	CDC25B CDK2 inh
CC(C)c1ccc(C2N3CC4(C)CN2CC(C)(C3)C4=O)cc1 (stereo not drawn)	·	-1.85
CCOc1ccc(S(=O)(=O)NCc2ccc3c(c2)OCO3)c2ccccc12	0.69	-1.43
Cc1nn(CC(=O)NC2CCCC2)c(=O)c2cc3occc3n12	2.5	-0.32

More structures
SMILES	TAR Tat displ	CDC25B CDK2 inh
CC(C)Cc1nnc(NC(=O)CSc2nc(N)cc(=O)[nH]2)s1	·	-0.05
COc1cc(C(=O)CCN2CCC(c3ccccc3)C2)cc(OC)c1OC (stereo not drawn)	·	-1.02
Nc1nc(=S)[nH]c2c1C1(CCCCC1)Cc1ccccc1-2	·	-2.81
COc1ccc(-c2noc(C34CC5CC(CC(C5)C3)C4)n2)cc1	·	-1.26
Cc1ccc(NC(=O)CCS(=O)(=O)Cc2ccccc2)c(Br)c1	·	-2.13
CC(=O)N1c2ccc(S(=O)(=O)NCC3CCC(C(=O)N4CCCC4)CC3)cc2CC1C (stereo not drawn)	-1.79	·
COC(=O)c1ccc(C2NC(=O)NC(O)(C(F)(F)F)C2C(=O)c2ccc(F)cc2)cc1 (stereo not drawn)	·	0.1
NC(=O)c1c(NC(=O)c2ccc(Br)o2)sc2c1CCCC2	·	-10.5
Cc1ccc2c(c1)NC(C(C)C)NS2(=O)=O (stereo not drawn)	0.38	·
Cn1nc(-c2ccccc2)cc1NC(=O)Nc1cccs1	·	-0.99
COC(=O)c1c(C)oc2ccc(OC(=O)c3ccc(OC)c(OC)c3)cc12	0.82	-3.85
O=[N+]([O-])c1cc(C(F)(F)F)ccc1NCCc1ccccc1	·	-1.27
CN1CCN(C)c2c1c(=O)c2=O	·	-2.19
O=C(NC1CCCCC1)C1CCC(CNc2c(N3CCCCC3)c(=O)c2=O)CC1 (stereo not drawn)	1.35	-0.77
CC1(C)CC(=O)C2=C(C1)Nc1ccccc1N1C(=O)c3ccccc3C21 (stereo not drawn)	·	-0.93
